Screening data from PubChem BioAssay.
HNF4A DNA FP: change in binding of human HNF4 alpha to DNA; P41235; HNF4a-FITC DNA binding, fluorescence polarization, 1 h; activity change, % at 10 µM; 0.3% of 360,000 active; in the data active means activity change above about 30%, passing the limit was not always enough;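 further: controls were the assay level and a saturating level of protein; the project sought stronger binding though the title names inhibitors; some compounds called inactive have numbers as strong as hits; positive values seem to mean higher polarization but the record does not say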
Ecoli rRNA inh: inhibits bacterial ribosomal RNA function over humanized ribosomes; E. coli WT GFP vs humanized-ribosome RFP mutants, fluorescence, 24 h; stronger effect = lower value; DMSO median 0, no signal -100; GFP signal change (wild-type ribosome), % (concentration not given with the values); 1.6% of 350,000 active;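 active means significant combined selectivity score with lowered wild-type GFP, culture density cut under 30%, mutant RFP and density less affected; inactive means any of these conditions unmet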; further: one replicate is shown; some compounds called inactive have numbers as strong as hits
AF4-AF9 inh: blocks AF4 peptide binding to human AF9; P42568; inhibition, % at 10 µM; AlphaScreen, biotin-AF4 peptide binding to FLAG-AF9; AID 651704; 0.47% of 350,000 active;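 active means every replicate reaching a set inhibition limit, whatever the replicate mean, cut at about 25% in these data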;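 further: 0% = plate neutral control median and 100% = total signal loss; the record names both 10 and 1 µM as test concentration; the first replicate is given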
Target sequence (P42568 whole entry, looked up): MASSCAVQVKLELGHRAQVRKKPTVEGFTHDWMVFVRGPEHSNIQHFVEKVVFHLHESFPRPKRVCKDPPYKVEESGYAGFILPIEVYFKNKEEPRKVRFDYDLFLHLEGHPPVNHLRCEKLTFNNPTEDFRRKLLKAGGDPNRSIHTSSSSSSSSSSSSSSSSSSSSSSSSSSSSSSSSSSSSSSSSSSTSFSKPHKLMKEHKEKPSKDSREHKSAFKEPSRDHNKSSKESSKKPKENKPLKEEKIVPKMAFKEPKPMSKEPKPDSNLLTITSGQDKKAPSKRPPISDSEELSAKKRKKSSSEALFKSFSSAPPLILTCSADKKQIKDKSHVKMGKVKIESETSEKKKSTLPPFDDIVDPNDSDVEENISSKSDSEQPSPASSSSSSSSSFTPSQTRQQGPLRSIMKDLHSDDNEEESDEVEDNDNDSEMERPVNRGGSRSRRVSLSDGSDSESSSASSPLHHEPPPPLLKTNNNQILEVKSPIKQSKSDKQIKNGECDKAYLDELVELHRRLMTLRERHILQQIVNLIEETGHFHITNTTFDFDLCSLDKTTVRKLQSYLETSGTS
Ecoli growth: inhibitors of Escherichia coli growth; OD600 absorbance (concentration not given with the values); 0.21% of 330,000 active; AID 1053175; OD600, 23 h; stronger effect = lower value;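 active means OD600 absorbance below the run mean of sample wells minus 3.6 SD, in any replicate, cut at about 0.56 in these data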;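 further: stock transfer was 300 nL into about 60 µL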
FGF22 binding: shifts melting point of recombinant human FGF22 | recombinant FGF22 thermal shift, SYPRO orange fluorescence; percent of sucrose octasulfate shift, DMSO zero | AID 651658 | 1.5% of 340,000 active | calls only at 9.99 µM | Q9HCT0;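 active means melting point raised past a set limit in the mean and every replicate; three in four hits are not shown here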
Target sequence (Q9HCT0 whole entry, looked up): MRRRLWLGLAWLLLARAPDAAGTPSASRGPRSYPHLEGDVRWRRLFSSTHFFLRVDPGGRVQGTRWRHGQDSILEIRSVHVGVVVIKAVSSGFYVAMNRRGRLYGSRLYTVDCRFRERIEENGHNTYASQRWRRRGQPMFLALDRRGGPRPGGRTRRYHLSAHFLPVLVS
ALR H2O2 inh: blocks human ALR sulfhydryl oxidase activity | 3.8% of 290,000 active | purified ALR, DTT oxidation, H2O2 HRP-luminol luminescence | P55789 | inhibition, % (no concentration beside the values);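 active means mean and each replicate at 75% or more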;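 further: stock transfer was 7.5 nL into about 7.5 µL; 0% = neutral wells and 100% = wells with inactivated enzyme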
Target sequence (P55789 whole entry, looked up): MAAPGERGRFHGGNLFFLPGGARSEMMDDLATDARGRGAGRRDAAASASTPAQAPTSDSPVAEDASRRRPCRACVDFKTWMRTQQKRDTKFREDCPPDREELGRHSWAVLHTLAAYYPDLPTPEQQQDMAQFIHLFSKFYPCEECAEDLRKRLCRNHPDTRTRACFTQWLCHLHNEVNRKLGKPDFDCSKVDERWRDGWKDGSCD
Vif A3G: inhibitors of Vif binding to APOBEC3G peptide, primary screen, biochemical, TR-FRET, GST-Vif 1-94, biotin-A3G peptide, dose response retest (AID 1117319); TR-FRET GST-Vif / biotin-A3G peptide binding; higher % means a stronger effect; test concentration not given here; strong numbers were not always called active; inhibition, %; hits with a dose series show IC50 in µM; 0.57% of 260,000 active;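 active means above the screen mean plus three standard deviations and confirmed in dose response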;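 further: Vif residues 1-94 fused to GST binding biotinylated APOBEC3G peptide 110-148; 0% = full assay without inhibitor and 100% = GST in place of GST-Vif; retest series ran down from 100 µM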
Ecoli rRNA inh OD600: recorded beside Ecoli rRNA inh, whose call it bears; OD600 change, %; measured here: OD600 growth;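 optical density of the mix in the first replicate; 0 = DMSO median and -100 = no signal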
Ecoli rRNA inh RFP: further read-out of Ecoli rRNA inh, marked with its call; RFP signal change, %; measured here: RFP humanized mutant strains;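 first replicate; 0 = DMSO median and -100 = no signal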
* hit, by the source's call; i = inactive; . = no result given. Only part of the results is shown (hit frequency here may not be typical).

SMILES	HNF4A DNA FP	Ecoli rRNA inh	Ecoli rRNA inh OD600	Ecoli rRNA inh RFP	AF4-AF9 inh	Ecoli growth	FGF22 binding	ALR H2O2 inh	Vif A3G
CCN(Cc1ccccc1)S(=O)(=O)c1cc(C(=O)NC2CCCCCC2)ccc1OC	-1.1	-10.6	-22.5	-0.3	0.3	0.687	i	2.0	9.7%
COc1ccccc1N1CCN(C2CCC(C)CC2)CC1 (centres undefined)	2.9	10.5	-1.3	-1.6	0.5	0.712	i	-1.3	.
CC(C)NC(=O)N(C)C[C@@H]1Oc2ncc(-c3cccc(C(F)(F)F)c3)cc2C(=O)N([C@H](C)CO)C[C@@H]1C	.	-4.6	-3.2	0.1	-2.9	.	i	.	.
Cc1noc(C)c1S(=O)(=O)Nc1ccc2c(c1)C(=O)N([C@H](C)CO)C[C@H](C)[C@H](CN(C)C(=O)Nc1ccc3c(c1)OCO3)O2	.	2.5	5.4	0.6	-1.4	.	i	.	.
CCC(=O)N(C)C[C@@H]1Oc2cc(-c3ccc(F)cc3)ccc2S(=O)(=O)N([C@@H](C)CO)C[C@@H]1C	.	-9.7	-15.4	3.1	-3.1	.	i	.	.
O=C(/C=C/c1ccccc1)Nc1cccc(C(=O)NCCCc2ccccc2)c1	-1.9	-8.5	-15.6	-7.3	-1.7	.	i	.	.
CCCCCOC(=O)C1[C@H]2C(=O)N(c3ccccc3CC)C[C@]23C=C[C@H]1O3 (some centres undefined)	1.8	.	.	.	.	0.717	.	-24.3	-2.6%
Cc1ccc2nc(NC(=O)COC(=O)c3ccco3)sc2c1	1.8	.	.	.	.	0.704	.	-15.8	1.7%
OC[C@H]1[C@H](c2ccc(C#Cc3ccccc3F)cc2)[C@H]2CN(CC3CCOCC3)CCCCN21	.	-8.0	-23.4	10.4	9.9	.	i	.	.
CC[C@]1(C(=O)OC)[C@H]2C(=O)N(Cc3ccccc3)C(=O)[C@H]2[C@H]2CN=C(SCC(=O)c3ccccc3)N21	-0.7	7.0	2.9	-3.0	-1.4	0.692	.	.	10.7%
Cc1ccc(-c2cc(-c3ccccc3O)nc(N/N=C/c3cccnc3)n2)cc1	1.9	10.5	12.2	2.7	-0.9	.	i	-3.0	17.6%
N#Cc1c(N2CCCCC2)nc(N)c2c(N)nc(SCC(=O)O)cc12	-12.9	9.0	-2.5	7.5	-10.1	0.704	i	.	.
CCn1cc(CCC(=O)NCc2cccc(OC)c2OC)c2ccccc21	-1.9	-7.1	-7.8	3.7	-0.9	0.703	i	2.8	.
Cc1nnc(C)n1/N=C/c1cccn1C	4.3	.	.	.	.	.	.	8.9	2.7%
CCOc1ccc(C(=O)CCC(=O)NC2=NCCS2)cc1	12.2	6.1	11.1	2.3	-1.0	0.631	i	2.6	.
CNc1oc(-c2ccccc2Cl)nc1C#N	-1.8	.	.	.	.	0.699	.	.	14.1%
Cc1nnc(N/N=C/c2cccc(C(F)(F)F)c2)n1N	0.7	5.4	7.5	-3.8	3.5	.	i	-29.0	0.7%
COCc1cc(C)nc(Nc2ccc(C)c(C)c2)c1C#N	1.1	.	.	.	.	0.733	.	-19.8	2.0%
Cc1c(C(=O)NCc2ccc(C#N)cc2)sc(=O)n1Cc1ccc(C(=O)N(C)C)cc1	-1.3	3.1	5.9	-8.4	0.5	.	i	.	.
CCC(C)Nc1nc(N)c([N+](=O)[O-])c(Nc2ccccc2OC)n1 (centres undefined)	-1.9	-33.9	-31.8	-6.9	12.9	.	i	-1.9	-2.0%
Cc1cccc(C2=NN(c3ccccc3)[C@@H](C(=O)N3CCOC3=O)[C@@H]2c2ccc([N+](=O)[O-])cc2)c1	0.4	7.6	13.6	0.3	6.9	.	i	.	.
Cc1c(/C=N/Nc2ccc([N+](=O)[O-])cn2)c2ccccc2n1Cc1ccccc1	6.1	12.9	0.3	0.0	-14.7	.	i	14.7	11.0%
CCOC(=O)C(NCCCCl)c1ccccc1 (centres undefined)	-0.3	.	.	.	.	0.776	.	-6.4	16.0%
Cc1cc(OCC(=O)Nc2nccs2)c2c(C)cc(=O)oc2c1	6.3	18.2	8.0	-4.2	-0.5	0.661	i	0.1	.
CC(=O)N1CCN(C(=O)c2cc3c(s2)CCCC3)CC1	1.5	5.0	13.8	4.9	-6.3	0.696	i	.	3.2%
O=C(Nc1ccccc1Cl)c1ccc2nc(N3CCOCC3)sc2c1	1.0	0.9	10.9	-3.9	0.9	0.712	i	0.7	.
O=C(NNC(=O)c1ccc(Cl)cc1Cl)c1csc(-c2cccnc2)n1	-0.5	0.6	2.0	2.9	8.4	0.603	i	0.5	-4.1%
COc1ccnc(NCc2cccc(C(F)(F)F)c2)c1C#N	-3.9	5.0	5.2	0.5	0.9	0.723	i	-6.8	-1.4%
C/C(Cl)=C/Cn1c(SCC(C)C)nc2c1c(=O)[nH]c(=O)n2C	-0.3	.	.	.	.	0.806	.	1.9	-3.1%
O=C(NCC1CC1)[C@]1(C(F)(F)F)C[C@H](CCC2CCCCC2)CCCO1	0.7	4.6	5.8	-6.5	.	0.782	i	-10.8	.
CC(C)OCCCNC(=O)CCN1C(=O)COc2ccccc21	-0.1	10.8	9.9	0.4	-38.2	0.693	i	-6.5	4.5%
CCN(C(=O)CSc1nc2ccccc2c(=O)n1Cc1ccc(C)cc1)C1CCS(=O)(=O)C1 (centres undefined)	4.0	-1.2	-2.4	0.1	-48.1	0.69	i	3.6	-6.7%
CCOc1ccc(NC(=O)c2ccc3snnc3c2)cc1	0.9	.	.	.	.	0.735	.	-4.7	-3.8%
CC(C)(C)C1CCC(C(=O)NNC(=O)c2ccncc2)CC1 (centres undefined)	-1.5	0.8	-0.3	-0.4	0.3	0.653	.	-0.2	13.3%
CCCCn1cnc2c(oc3ccccc32)c1=O	1.6	1.9	-3.6	1.7	-2.4	0.678	i	-5.1	3.4%
O=C(C1CC1)N1CCN=C1SCc1ccc(Cl)cc1	-3.8	.	.	.	.	0.682	.	98.3*	6.3%
O=C(NCC(c1cccnc1)N1CCN(c2ccc(F)cc2)CC1)c1ccc2c(c1)OCO2 (centres undefined)	-3.6	.	.	.	.	0.717	.	48.0	12.6%
O=C1NC(=O)C(CC(=O)N(Cc2ccco2)C2(C(=O)NC3CCCCC3)CCCCC2)N1 (centres undefined)	3.1	.	.	.	.	0.756	.	-0.6	-1.7%
CCN(CC)S(=O)(=O)c1ccc(Cl)c(C(=O)Oc2cccnc2)c1	-1.6	.	.	.	.	0.7	.	-1.4	6.3%
COc1ccc(C2CC(c3ccc(OC)cc3)n3nc(NC(=O)c4ccco4)nc3N2)cc1 (centres undefined)	-1.6	.	.	.	.	0.754	.	1.3	-1.8%
Cc1cccc(Cn2c(SCCO)nc3c2c(=O)n(C)c(=O)n3C)c1	0.1	.	.	.	.	0.759	.	-24.8	3.4%
CCN1C(=O)C(F)(CC)C(=O)c2ccccc21 (centres undefined)	1.9	.	.	.	.	0.685	.	11.7	13.3%
Cn1nc(CC(=O)NC2CCCCCCCCCCC2)c2ccccc2c1=O	-3.0	.	.	.	.	0.708	.	-1.5	-9.4%
CCNc1nc(N2CCCC2)nc(N2CCCC2)n1	-2.8	-22.4	-26.2	-8.8	4.8	0.631	i	.	3.4%
Cc1cc(C)n2nc(SCC(=O)Nc3ccccc3)nc2n1	-2.0	5.8	5.3	1.2	-1.4	0.686	.	-8.5	-7.8%

Some of these compounds in order of heavy-atom count, largest number first.
SMILES	HNF4A DNA FP	Ecoli rRNA inh	Ecoli rRNA inh OD600	Ecoli rRNA inh RFP	AF4-AF9 inh	Ecoli growth	FGF22 binding	ALR H2O2 inh	Vif A3G
O=C(NCC(c1cccnc1)N1CCN(c2ccc(F)cc2)CC1)c1ccc2c(c1)OCO2 (centres undefined)	-3.6	.	.	.	.	0.717	.	48.0	12.6%
O=C1NC(=O)C(CC(=O)N(Cc2ccco2)C2(C(=O)NC3CCCCC3)CCCCC2)N1 (centres undefined)	3.1	.	.	.	.	0.756	.	-0.6	-1.7%
Cn1nc(CC(=O)NC2CCCCCCCCCCC2)c2ccccc2c1=O	-3.0	.	.	.	.	0.708	.	-1.5	-9.4%
Cc1cccc(Cn2c(SCCO)nc3c2c(=O)n(C)c(=O)n3C)c1	0.1	.	.	.	.	0.759	.	-24.8	3.4%
CCN(CC)S(=O)(=O)c1ccc(Cl)c(C(=O)Oc2cccnc2)c1	-1.6	.	.	.	.	0.7	.	-1.4	6.3%
CC(C)OCCCNC(=O)CCN1C(=O)COc2ccccc21	-0.1	10.8	9.9	0.4	-38.2	0.693	i	-6.5	4.5%
Cc1cc(C)n2nc(SCC(=O)Nc3ccccc3)nc2n1	-2.0	5.8	5.3	1.2	-1.4	0.686	.	-8.5	-7.8%
CCOc1ccc(NC(=O)c2ccc3snnc3c2)cc1	0.9	.	.	.	.	0.735	.	-4.7	-3.8%
CCNc1nc(N2CCCC2)nc(N2CCCC2)n1	-2.8	-22.4	-26.2	-8.8	4.8	0.631	i	.	3.4%
CCCCn1cnc2c(oc3ccccc32)c1=O	1.6	1.9	-3.6	1.7	-2.4	0.678	i	-5.1	3.4%
CCN1C(=O)C(F)(CC)C(=O)c2ccccc21 (centres undefined)	1.9	.	.	.	.	0.685	.	11.7	13.3%

(further entries)
SMILES	HNF4A DNA FP	Ecoli rRNA inh	Ecoli rRNA inh OD600	Ecoli rRNA inh RFP	AF4-AF9 inh	Ecoli growth	FGF22 binding	ALR H2O2 inh	Vif A3G
CCCCNS(=O)(=O)c1ccc(OC)c(Cl)c1Cl	7.0	.	.	.	.	0.702	.	-13.3	0.6%
COCCNC(=S)N(C)[C@H]1C[C@H]2c3cc(N4CCN(C)CC4)ccc3CCN2C(=O)[C@H]1[C@H](C)O	0.3	-0.8	8.0	-1.4	-0.3	.	i	.	.
COC(=O)c1ccc(COc2ccc(-c3nn[nH]n3)cc2)cc1	1.4	.	.	.	.	0.67	.	-0.9	-1.5%
COC(=O)c1ccccc1Oc1ccc(NC(=O)c2ccco2)cc1	-1.5	4.6	2.2	2.1	1.5	0.635	i	-1.1	2.2%
COc1cccc(NC(=O)CN(C)C(=O)c2csc3c2CCCC3)c1	-1.4	.	.	.	-2.8	0.646	i	-0.2	-0.1%

Reprinted at random: 2 records from the list, in no set order.
SMILES	HNF4A DNA FP	Ecoli rRNA inh	Ecoli rRNA inh OD600	Ecoli rRNA inh RFP	AF4-AF9 inh	Ecoli growth	FGF22 binding	ALR H2O2 inh	Vif A3G
CCN1C(=O)C(F)(CC)C(=O)c2ccccc21 (centres undefined)	1.9	.	.	.	.	0.685	.	11.7	13.3%
C/C(Cl)=C/Cn1c(SCC(C)C)nc2c1c(=O)[nH]c(=O)n2C	-0.3	.	.	.	.	0.806	.	1.9	-3.1%
